Screening results from PubChem.
E coli growth – E. coli growth inhibition, primary screen, OD600; Escherichia coli growth, 23 h; active compounds read low; OD600 absorbance (no concentration beside the values); hit rate 0.21% among 330,000;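 active means OD600 absorbance below the run mean of sample wells minus 3.6 SD, in any replicate, cut at about 0.56 in these data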;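 further: stock transfer was 300 nL into about 60 µL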
HNF4A DNA FP – change in binding of human HNF4A to DNA, primary screen, biochemical, fluorescence polarization, FITC-DNA; Hepatocyte nuclear factor 4-alpha (Homo sapiens), P41235; 1 h; activity change, % at 10 µM; hit rate 0.3% among 360,000; AID 1224865, 2016; in the data active means activity change above about 30%, passing the limit was not always enough;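 further: controls were the assay level and a saturating level of protein; the project sought stronger binding though the title names inhibitors; some compounds called inactive have numbers as strong as hits; positive values seem to mean higher polarization but the record does not say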
Target sequence (P41235 whole entry, looked up): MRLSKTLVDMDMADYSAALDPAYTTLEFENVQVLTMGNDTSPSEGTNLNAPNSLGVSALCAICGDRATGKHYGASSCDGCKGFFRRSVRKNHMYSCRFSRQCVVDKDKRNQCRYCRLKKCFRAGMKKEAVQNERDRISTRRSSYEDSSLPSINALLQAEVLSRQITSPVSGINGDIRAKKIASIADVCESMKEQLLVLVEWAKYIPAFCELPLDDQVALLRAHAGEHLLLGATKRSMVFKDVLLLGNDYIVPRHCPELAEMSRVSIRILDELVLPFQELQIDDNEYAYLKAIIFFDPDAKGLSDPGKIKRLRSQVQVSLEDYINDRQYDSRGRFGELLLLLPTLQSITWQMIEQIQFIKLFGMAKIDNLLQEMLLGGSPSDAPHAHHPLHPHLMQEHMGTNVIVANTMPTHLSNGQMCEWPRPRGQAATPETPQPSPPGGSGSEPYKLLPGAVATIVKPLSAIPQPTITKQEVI
Vif TR-FRET – inhibitors of Vif binding to APOBEC3G peptide, primary screen, biochemical, TR-FRET, GST-Vif 1-94, biotin-A3G peptide, dose response retest (AID 1117319). Virion infectivity factor (Human immunodeficiency virus type 1 group M subtype B (isolate …. TR-FRET GST-Vif / biotin-A3G peptide binding; higher % means a stronger effect; test concentration not given here; strong numbers were not always called active. inhibition, %, or IC50 in µM where a hit was titrated. hit rate 0.57% among 260,000;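 active means above the screen mean plus three standard deviations and confirmed in dose response; inconclusive means results disagree or hit not tested in dose response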;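 further: Vif residues 1-94 fused to GST binding biotinylated APOBEC3G peptide 110-148; 0% = full assay without inhibitor and 100% = GST in place of GST-Vif; retest series ran down from 100 µM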
RanGTP-Imp inh – inhibitors of RanGTP-importin-beta interaction, primary screen, biochemical, FRET, CFP-Ran, YFP-importin-beta, homogeneous; Ran GTPase (GTP-bound) - importin-beta complex; cell-free CFP-Ran/YFP-importin-beta FRET ratio; inhibition, % (test concentration not listed); hit rate 1.1% among 300,000; AID 2216, 2009;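 active means most replicates above 15%; inconclusive means exactly half above 15%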;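 further: 0% = DMSO wells and 100% = Ran loaded with GDP instead of GTP; wells of about 40 µL received 100 nL stock; the first replicate is given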
UCH37 inh – inhibitors of human UCH37 deubiquitinase, primary screen, biochemical, Ub-AMC cleavage, fluorescence. purified proteasome/UCH37. hit rate 0.33% among 330,000. AID 588478, 2011. Ubiquitin carboxyl-terminal hydrolase isozyme L5 (Homo sapiens), Q9Y5K5. inhibition, % (concentration not given with the values);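 active means mean of two replicates above 20%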;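 further: 0% = compound-free wells with enzyme and 100% = wells lacking proteasome; stock transfer was 100 nL into about 20 µL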
Target sequence (Q9Y5K5 whole entry, looked up): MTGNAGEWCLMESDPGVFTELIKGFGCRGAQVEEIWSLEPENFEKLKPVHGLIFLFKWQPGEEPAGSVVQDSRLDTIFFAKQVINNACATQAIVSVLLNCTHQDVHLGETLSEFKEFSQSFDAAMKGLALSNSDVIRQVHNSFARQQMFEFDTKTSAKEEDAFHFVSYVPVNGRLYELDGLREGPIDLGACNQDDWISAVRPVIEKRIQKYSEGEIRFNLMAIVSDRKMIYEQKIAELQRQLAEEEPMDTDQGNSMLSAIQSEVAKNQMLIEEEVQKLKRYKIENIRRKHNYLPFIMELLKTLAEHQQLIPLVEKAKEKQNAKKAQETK
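assay system = human UCH37 enzyme supplied as purified proteasome complex | amount = proteasome at 0.15 nM in the dispensed enzyme solution | schedule = 30 min compound-proteasome preincubation then 25 min substrate reaction, room temperature | measured by = fluorescence, ex 355 nm, em 460 nm | benchmarks = no-proteasome wells (full inhibition) and compound-free wells (no inhibition)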
MLL AF4-AF9 inh – inhibitors of AF4 peptide binding to AF9, primary screen, biochemical, AlphaScreen, biotin-AF4 peptide, FLAG-AF9, single point; inhibition, % at 10 µM; hit rate 0.47% among 350,000;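 active means every replicate reaching a set inhibition limit, whatever the replicate mean, cut at about 25% in these data; inconclusive means mean inhibition reaches that limit but some replicates miss it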;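 further: 0% = plate neutral control median and 100% = total signal loss; the record names both 10 and 1 µM as test concentration; the first replicate is given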
FGF22 binding – binders of human FGF22 protein, primary screen, FGF22 synaptogenesis inhibitor project, biophysical, thermal shift, single point. Fibroblast growth factor 22 (Homo sapiens), Q9HCT0. recombinant FGF22 thermal shift, SYPRO orange fluorescence; percent of sucrose octasulfate shift, DMSO zero. calls only at 9.99 µM. hit rate 1.5% among 340,000;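 active means melting point raised past a set limit in the mean and every replicate; inconclusive means no clear call; three in four hits are not shown here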
Target sequence (Q9HCT0 whole entry, looked up): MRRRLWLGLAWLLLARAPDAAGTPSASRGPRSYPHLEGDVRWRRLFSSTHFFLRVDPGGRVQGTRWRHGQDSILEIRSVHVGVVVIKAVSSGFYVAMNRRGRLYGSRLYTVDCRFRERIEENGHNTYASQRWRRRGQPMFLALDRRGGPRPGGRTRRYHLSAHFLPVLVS
* marks the source's active call; other numbers are inactive results; i = inactive; ? = inconclusive; · = not tested or not shown; & = joins results of further samples. An excerpt; the hit share may differ from the screen's.

SMILES	E coli growth	HNF4A DNA FP	Vif TR-FRET	RanGTP-Imp inh	UCH37 inh	MLL AF4-AF9 inh	FGF22 binding
Cc1nn(CC#N)c(=O)n1-c1ccccc1F	0.733	-2.0	-2.7%	-1.5	-1.7	·	·
COc1ccc(C(=O)CSc2nnc3ccccn23)cc1OC	0.686	3.9	-2.3%	-0.9	1.5	0.0	i
Cc1ccc(S(=O)(=O)N(C)C[C@@H]2OCc3cnnn3CCCC(=O)N([C@H](C)CO)C[C@@H]2C)cc1	·	0.0	-5.2%	·	·	-1.8&0.5	i
COc1cc(C(=O)Nc2nc(-c3cc(C)ccc3C)c(C)s2)ccc1OCC(=O)Nc1ccc(F)cc1	0.689	-2.0	·	2.8	-22.0	1.7	i
CCc1ccc(OCC(=O)Nc2ccc(CN3CCCCC3)cc2)cc1	0.679	0.1	?	0.5	1.3	-0.6	i
CCc1ccc(C(=O)N2CCN(c3ccc(F)cc3)CC2)s1	0.68	0.5	4.0%	1.2	3.3	·	·
O=C(CN(CC1CCCO1)C(=O)CNS(=O)(=O)c1ccccc1)NCc1ccc(F)cc1 (stereo not given)	0.68	-1.0	·	0.7	2.6	-5.1	i
CC(O)c1nc2ccccc2n1C1CCCCC1 (stereo not given)	0.664	1.4	5.2%	-2.4	1.1	·	·
S=C1SCCN1Cc1ccccc1	·	5.9	-4.5%	·	·	-3.0	i
CC(=O)N1CCN(c2ccc(Oc3ccc([N+](=O)[O-])c(C(F)(F)F)c3)cc2)CC1	0.65	3.3	8.3%	-0.9	1.9	·	·
CC(C)(C)OC(=O)C[C@H]1C/C=C\C[C@H](CC(=O)N[C@H](CO)Cc2ccccc2)C(=O)N[C@@H](Cc2ccccc2)COC1=O	·	1.7	·	·	-0.1	·	i
COc1ccccc1N(C)S(=O)(=O)c1ccc(C(=O)NCC(C)C)cc1	0.709	0.2	0.1%	-2.4	2.8	·	·

One compound at a time, as listed above. Values in the order: E coli growth, HNF4A DNA FP, Vif TR-FRET, RanGTP-Imp inh, UCH37 inh, MLL AF4-AF9 inh, FGF22 binding
Shown for Cc1ccc(S(=O)(=O)N(C)C[C@@H]2OCc3cnnn3CCCC(=O)N([C@H](C)CO)C[C@@H]2C)cc1 = ·, 0.0, -5.2%, ·, ·, -1.8&0.5, i
Shown for COc1ccccc1N(C)S(=O)(=O)c1ccc(C(=O)NCC(C)C)cc1 = 0.709, 0.2, 0.1%, -2.4, 2.8, ·, ·

The list continues.
SMILES	E coli growth	HNF4A DNA FP	Vif TR-FRET	RanGTP-Imp inh	UCH37 inh	MLL AF4-AF9 inh	FGF22 binding
CCOC(=O)N1CCN(C(C(=O)NC2CCCC2)c2cccc(OC)c2OC)CC1 (stereo not given)	·	-0.1	·	·	·	-2.8	i
Cc1cc(N2CCN(S(=O)(=O)Cc3ccccc3)CC2)n2ncnc2n1	0.619	0.7	-2.0%	-3.1	2.5	·	·
CC(C)(C)OC(=O)C(Cc1ccc(OC(C)(C)C)cc1)NC(=O)CNC(=O)OCc1ccccc1 (stereo not given)	0.69	-1.0	0.1%	12.5	-0.4	-4.2	i
CC1CCCN(C(=O)c2cccc(S(=O)(=O)N3CCCC3)c2)C1 (stereo not given)	0.679	2.6	17.9%	·	3.1	-3.1	i
Cc1noc(C)c1S(=O)(=O)NCc1ccc(CN(C)C)cc1	0.672	-2.6	-2.1%	·	2.6	0.4	i
COc1ccc(-c2nnc(SCc3ccc(C(=O)O)cc3)n2N)cc1	0.753	1.8	-3.0%	0.9	4.0	-1.2	i
CCCCN(CCCC)c1cn[nH]c(=O)c1Cl	0.668	6.4	0.5%	-0.1	2.3	·	·
O=C1NC(=S)SC1=Cc1ccc2c(c1)OCO2	0.68	-1.0	-15.7%	·	2.8	-0.8	i
CC1(C)Cn2c(nnc2-c2cccc(O)c2)S1	0.725	-2.0	2.6%	?	2.1	·	·
O=S(=O)(NC1CCCCCCC1)c1ccccc1F	0.651	-0.5	·	-1.8	1.4	0.3	i
COC(CNC(=O)c1ccc2c(c1)nc(C)n2-c1cccc(F)c1)OC	0.715	-3.6	?	-2.6	1.3	·	·
CCN(CC)C(=O)C1CCCN(Cc2ccccc2)C1 (stereo not given)	0.696	-3.0	3.3%	3.1	4.1	5.0	i

Reformatted: results already given.
| Structure | E coli growth | HNF4A DNA FP | Vif TR-FRET | RanGTP-Imp inh | UCH37 inh | MLL AF4-AF9 inh | FGF22 binding |
| --- | --- | --- | --- | --- | --- | --- | --- |
| S=C1SCCN1Cc1ccccc1 | · | 5.9 | -4.5% | · | · | -3.0 | i |
| CCc1ccc(OCC(=O)Nc2ccc(CN3CCCCC3)cc2)cc1 | 0.679 | 0.1 | ? | 0.5 | 1.3 | -0.6 | i |

Next section:
SMILES	E coli growth	HNF4A DNA FP	Vif TR-FRET	RanGTP-Imp inh	UCH37 inh	MLL AF4-AF9 inh	FGF22 binding
COc1cc2c(cc1OC)[C@@H](NC(=O)C(C)C)[C@H](OCc1ccccc1)C2	0.671	1.6	·	·	1.8	0.2	i
O=S(=O)(c1ccc2nnn(OCc3ccccc3)c2c1)N1CCOCC1	0.692	-5.3	-5.1%	0.2	1.4	13.5	i
COC1CCN(C(=O)C2CCC(=O)N(CCc3cccc(F)c3)C2)CC1 (stereo not given)	0.693	-1.7	8.2%	?	2.4	1.0	i
O=S(=O)(c1ccccc1)N(c1ccccc1)S(=O)(=O)c1ccccc1	·	0.9	-14.5%	·	·	-8.3	i
Cc1nc2c(ccc3nc(NC(=O)c4ccc(S(=O)(=O)N(C)C)cc4)sc32)s1	0.693	-0.2	5.4%	0.0	-223.3	-37.0	i
COc1ccc(CNC(=O)Cn2cccc2C(=O)c2ccccc2)cc1	0.699	-2.5	-2.7%	-0.1	5.3	0.9	i
CCCCCNC(=O)C(C)Sc1ccc(Cl)cc1 (stereo not given)	0.724	0.1	-6.4%	?	0.2	·	·
c1ccc(-c2[nH]ncc2CN2CCN(Cc3ccc4c(c3)OCO4)CC2)cc1	0.663	-2.0	17.7%	-1.3	0.5	1.5	i
CC(C)=CCCC(C)CN1CCC(n2nccc2NC(=O)c2cccnc2)CC1 (stereo not given)	0.637	3.9	·	7.4	-1.8	3.9	i
O=[N+]([O-])c1ccc(SCc2c(F)cccc2Cl)nc1	0.724	-5.2	-5.1%	?	3.2	-3.9	i
O=C(Nc1ccc2cn[nH]c2c1)c1ccc(S(=O)(=O)N2CCOCC2)cc1	0.661	-3.4	?	4.5	4.8	2.6	i
COc1ccc(-c2csc(C(C#N)=C(O)CSc3nccn3C)n2)cc1OC	0.673&0.623	10.3	-3.4%	·	10.6&6.3	16.6	i
Cc1nc(NC2=NCN(CCCN3CCOCC3)CN2)nc2c(C)cccc12	0.634	7.6	-11.2%	·	0.5	·	·
Cc1cc(C(=O)O)ccc1NCc1cccnc1	0.642	1.0	·	2.0	3.5	-4.9	i
CCCCn1c(SC(C)C(N)=O)nc2cc(C(=O)OC)ccc2c1=O (stereo not given)	0.716	-0.7	-3.6%	?	1.2	·	·
CC1CCN(S(=O)(=O)c2ccc(NC(=O)CN3CCCC3)cc2)CC1	0.685	4.1	3.3%	0.2	1.8	1.2	i
COc1ccccc1NC(=O)c1nc[nH]c1C(=O)Nc1ccccc1OC	0.742	4.2	-4.0%	-3.0	-24.5	·	·
COc1cccc(OC)c1C(=O)Nc1cccc(-c2ccc3nncn3n2)c1	0.711	-0.7	-22.6%	3.4	-0.9	-1.4	i
Cc1cccc(N2CCN(C(=O)c3ccc(N4CCCC4=O)cc3)CC2C)c1 (stereo not given)	0.736	2.1	-1.1%	-0.3	-0.5	·	·
CCOc1ccccc1NC(=O)COC(=O)C(CC(C)C)N1C(=O)C2CC=CCC2C1=O (stereo not given)	0.705	-1.8	3.8%	-1.0	3.5	·	·
CN(Cc1cccs1)C(=O)CN1CCN(S(=O)(=O)c2ccc3c(c2)OCCCO3)CC1	0.721	-1.9	-7.2%	·	0.2	0.2	i
COCCCNCCCCOc1ccc(Br)cc1Cl	0.68	-1.1	15.6%	24.4	1.2	1.1	i
COc1ccc(CC(=O)Nc2c(C(N)=O)oc3ccccc23)cc1OC	0.667	-1.9	·	?	0.0	-3.0	i
NC(=O)CC(NC(=O)c1ccccc1)c1ccc(NCc2ccc(F)cc2)c([N+](=O)[O-])c1 (stereo not given)	0.708	6.2	·	-1.4	2.1	·	·
CC(C)N(Cc1ccccc1)S(=O)(=O)c1ccc(F)cc1	0.711	3.0	·	-4.9	5.8	2.6	i
O=C(NCc1ccccc1)C1=C[C@H](c2coc3ccccc3c2=O)C[C@H](OCc2ccc(CO)cc2)O1	0.82	-3.0	·	5.6	3.4	-2.5&1.6	i
COc1cccc(CNc2ccc(S(N)(=O)=O)cc2)c1OC	0.691	0.1	5.4%	-1.4	1.4	·	·
O=C(O)c1cccc(N2C(=O)Nc3ccccc3N2O)c1	0.693	-2.2	-2.7%	1.6	3.0	·	·
COc1cccc(CC(NC(C)=O)C(=O)NC2CCN(c3nc(C)cc(C)c3C#N)CC2)c1OC (stereo not given)	0.689	0.0	20.9%	?	-50.4	·	·
CCOc1ccc(N=Nc2c(=O)[nH]n3c(=O)c4c([nH]c23)CCCC4)cc1	0.676	4.6	7.7%	2.7	24.6*	·	·
CCOC(=O)C1(C(=O)OCC)CC1c1ccccc1 (stereo not given)	0.763	0.4	-3.7%	3.0	1.3	·	·
CCCCNC(=O)C1CC(c2c(Cl)cccc2Cl)=NO1 (stereo not given)	·	0.9	-9.2%	-0.8	4.5	-0.3	i
CCCCn1c(=O)c(CCC(=O)OCC(=O)NCc2ccc(OC)c(OC)c2)nc2ccccc21	0.676	-3.8	0.3%	2.2	1.3	-1.4	i
CCc1cc(=O)oc2cc(C)cc(OCC(=O)NC3CCN(Cc4ccccc4)CC3)c12	0.729	6.8	·	2.3	-80.2	-7.2	i
CC1CC(C)CN(S(=O)(=O)N2CCC(C(=O)NCCc3ccccc3)CC2)C1 (stereo not given)	·	2.4	·	2.1	·	2.4	i
COC(=O)c1cccc(NS(=O)(=O)c2cccs2)c1C	0.662	-2.6	-3.5%	-2.3	0.7	·	·
Cc1ccccc1CSc1nnc(C)n1N	0.723	2.5	-2.4%	-0.5	5.5	7.1	i
CCCCNC(=O)C(CC)(ONc1ccccc1C(F)(F)F)c1ccccc1OC (stereo not given)	0.686	6.7	·	·	0.6	3.8	i
C/C(Nc1ccc(Cl)c(Cl)c1)=C1/CCOC1=O	·	7.4	-4.8%	·	·	0.1	i
Oc1ccc(-c2sc(Nc3ccccc3)n[n+]2-c2ccc(F)cc2)cc1	·	-0.7	·	4.0	-0.4	-12.0	i
CN(CC(=O)Nc1ccccc1Br)C(=O)c1ccc(-c2ccc(Cl)cc2)o1	0.709	1.9	·	5.1	-17.6	-5.9	i
COc1cccc(-c2cc3nc(NCc4ccc(C)cc4C)n(C)c(=O)c3s2)c1	·	0.4	·	·	·	0.5	i
COc1cc(C(O)c2nc(-c3csc4ccccc34)cs2)ccc1F (stereo not given)	·	-1.7	·	·	·	0.4	i
NS(=O)(=O)c1ccc(CNC(=O)CC23CC4CC(CC(C4)C2)C3)cc1	0.782	1.6	1.7%	-2.0	-5.1	·	·
O=C(O)C[C@H]1c2cc(C(F)(F)F)ccc2S(=O)(=O)N1C1CCN(Cc2ccccc2)CC1	·	-0.7	·	2.1	-0.3	2.0	i
